rRNA inh HTS: inhibits bacterial ribosomal RNA function over humanized ribosomes. E. coli WT GFP vs humanized-ribosome RFP mutants, fluorescence, 24 h; stronger effect = lower value; DMSO median 0, no signal -100. GFP signal change (wild-type ribosome), % (test concentration not listed). 350,000 compounds, 1.6% hits;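 active = significant combined selectivity score with lowered wild-type GFP, culture density cut under 30%, mutant RFP and density less affected; inactive = any of these conditions unmet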; note: one replicate is shown; some compounds called inactive have numbers as strong as hits
rRNA inh HTS OD600: further read-out of rRNA inh HTS, marked with its call; OD600 change, %; measured here: OD600 growth;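 optical density of the mix in the first replicate; 0 = DMSO median and -100 = no signal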
rRNA inh HTS RFP: further read-out of rRNA inh HTS, marked with its call; RFP signal change, %; measured here: RFP humanized mutant strains;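 first replicate; 0 = DMSO median and -100 = no signal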
Active calls of the source: *; & = joins results of further samples.

rRNA inh HTS | rRNA inh HTS OD600 | rRNA inh HTS RFP | Molecule
-3 | -11 | 5.1 | CC(C)NC(=O)N[C@@H]1C=C[C@@H](CC(=O)O)O[C@H]1CO
-5 | -3 | -5.5 | C[C@@H]1CN([C@H](C)CO)C(=O)c2cc(NC(=O)Nc3ccc(F)cc3)ccc2O[C@@H](C)CCCCO[C@@H]1CN(C)S(=O)(=O)c1ccc(Cl)cc1
0 | -3 | 1.2 | Cc1noc(C)c1S(=O)(=O)Nc1ccc2c(c1)C(=O)N([C@@H](C)CO)C[C@H](C)[C@H](CN(C)C(=O)Nc1ccccc1)OCCCC[C@H](C)O2
-1 | 3 | 0.5 | C[C@H](CO)N1C[C@H](C)[C@H](CN(C)C(=O)C2CC2)Oc2cc(-c3cccnc3)ccc2S1(=O)=O
4 | 11 | 3.6 | COC(=O)[C@]12CCCCC=C1N(Cc1ccco1)C(=O)[C@H](CC(=O)N1CCN(C(=O)c3ccco3)CC1)C2
-56 | -82 | -19 | COc1cc(CN2C[C@@H]3N[C@H](C2)C3c2ccc(-c3ccccc3C)cc2)cc(OC)c1 (stereo partly specified)
3 | 1 | 0.5 | O=C(O)c1cccc(NC(=O)c2ccccc2NC(=O)c2cccs2)c1
-5 | -2 | 3.0 | Cc1noc(C)c1NC(=O)N(C)C[C@H]1Oc2c(NC(=O)c3nc4ccccc4s3)cccc2C(=O)N([C@@H](C)CO)C[C@H]1C
-7 | -14 | 7.5 | C[C@@H]1CN([C@@H](C)CO)C(=O)c2cccc(NC(=O)c3nc4ccccc4s3)c2O[C@@H]1CN(C)Cc1ccncc1
2 | -7 | 2.1 | Nc1ccn([C@@H]2O[C@H](C(=O)N[C@H](Cc3ccccc3)C(=O)N3CCC(F)(F)CC3)[C@@H](O)[C@H]2O)c(=O)n1
0 | 6 | -3.8 | C[C@H](NC(=O)C[C@H]1CC[C@H](NC(=O)C2CCC2)[C@@H](CO)O1)c1ccccc1
2 | 9 | 1.8 | O=C1C=C(OCCF)CC(c2cccc([N+](=O)[O-])c2)O1 (stereo unspecified)
4 | 9 | 0.5 | Cc1ccc(C(NC(=O)C2CCN(CCOc3ccccc3)CC2)c2ccccn2)cc1 (stereo unspecified)
-7 | -7 | -0.3 | C[C@@H]1CN([C@H](C)CO)C(=O)c2cc(NC(=O)NC3CCCCC3)ccc2O[C@H]1CN(C)Cc1ccccc1
4 | 11 | -0.6 | Cc1noc(C)c1NC(=O)Nc1ccc2c(c1)C(=O)N(C)[C@@H]1CC[C@@H](CC(=O)N[C@H]3CCN(Cc4ccccc4)C3)O[C@@H]1CO2
-1 | 0 | -4.8 | O=C(c1ccccc1)N1C[C@@H]2[C@H](c3ccccc31)[C@H](CO)N2S(=O)(=O)c1ccccc1

2 of the compounds above, in markdown:
| compound | rRNA inh HTS | rRNA inh HTS OD600 | rRNA inh HTS RFP |
| --- | --- | --- | --- |
| Nc1ccn([C@@H]2O[C@H](C(=O)N[C@H](Cc3ccccc3)C(=O)N3CCC(F)(F)CC3)[C@@H](O)[C@H]2O)c(=O)n1 | 2 | -7 | 2.1 |
| C[C@H](NC(=O)C[C@H]1CC[C@H](NC(=O)C2CCC2)[C@@H](CO)O1)c1ccccc1 | 0 | 6 | -3.8 |

Additional compounds:
rRNA inh HTS | rRNA inh HTS OD600 | rRNA inh HTS RFP | Molecule
4 | 10 | -1.4 | C[C@@H]1CN([C@H](C)CO)C(=O)c2cc(NS(=O)(=O)c3ccc(F)cc3)ccc2O[C@H]1CN(C)C
1 | 6 | -3.0 | COc1ccc(S(=O)(=O)N[C@@H]2CC[C@H](CC(=O)N3CCc4ccccc4C3)O[C@H]2CO)cc1
-5 | -5 | 4.3 | C[C@@H]1CN([C@@H](C)CO)C(=O)c2cc(NC(=O)Nc3ccc(C(F)(F)F)cc3)ccc2O[C@H]1CN(C)Cc1ccc(C(=O)Nc2ccccc2N)cc1
-30 | -62 | 12 | O=C(c1ccc(F)cc1)N1CC(=O)N2[C@H](CO)[C@@H](c3ccc(C#CC4CCCC4)cc3)[C@H]2C1
-14 | -8 | 2.0 | Cc1noc(C)c1NC(=O)Nc1ccc2c(c1)CC(=O)N([C@@H](C)CO)C[C@H](C)[C@H](CN(C)Cc1ccc(Cl)c(Cl)c1)O2
2 | -9 | 1.0 | CCCNC(=O)C[C@H]1CC[C@H]2[C@H](COc3ccc(NC(=O)c4cccc(Cl)c4)cc3C(=O)N2C)O1
2 | 3 | -1.4 | C[C@H]1CN([C@@H](C)CO)C(=O)Cc2cc(NC(=O)NC3CCCCC3)ccc2O[C@H]1CN(C)S(=O)(=O)c1cn(C)cn1
-1 | -10 | -1.9 | C[C@@H]1CN([C@@H](C)CO)C(=O)c2cc(NC(=O)c3ccncc3)ccc2O[C@@H]1CN(C)Cc1ccc2c(c1)OCO2
10&2 | 9&1 | 0.8&-0.1 | C[C@@H]1CN([C@H](C)CO)C(=O)CCCn2nncc2CO[C@H]1CN(C)C(=O)Nc1ccc2c(c1)OCCO2
2 | 2 | 1.2 | C[C@@H]1CN([C@@H](C)CO)C(=O)Cc2cc(NC(=O)C3CC3)ccc2O[C@@H]1CN(C)C(=O)Nc1ccccc1
-1 | -7 | 0.9 | O=C(Cc1ccccc1)N1CC2(C1)[C@@H](c1ccccc1)[C@H](CO)N2C(=O)Cc1ccccc1
11 | 1 | -0.1 | O=c1[nH]c2ccccc2n1C1CCN(CCOc2ccccc2)CC1
1 | 6 | 4.6 | CN1CCN(C(=O)c2cc3c(c(-c4cccc(Br)c4)n2)[C@@H](CCO)N([S@](=O)C(C)(C)C)C3)CC1
-5 | -3 | -5.1 | O=C(C[C@H]1C[C@H]2c3cc(NC(=O)c4ccc5c(c4)OCO5)ccc3O[C@H]2[C@H](CO)O1)NCc1ccccn1
5 | 4 | 0.6 | O=C(C[C@@H]1C=C[C@H](NC(=O)C2CCOCC2)[C@H](CO)O1)NCC1CC1
0 | 13 | -2.8 | CCCNC(=O)N(C)C[C@H]1Oc2cc(-c3ccncc3)ccc2S(=O)(=O)N([C@@H](C)CO)C[C@@H]1C
5 | 6 | 0.5 | COCC#Cc1cnc2c(c1)C(=O)N([C@@H](C)CO)C[C@@H](C)[C@H](CN(C)C(=O)Cc1cccnc1)O2
0 | -1 | -0.2 | COc1ccc(CN(C)C[C@H]2OCc3cn(nn3)CCCC(=O)N([C@@H](C)CO)C[C@H]2C)cc1
4 | 4 | 1.0 | Cc1ccc(S(=O)(=O)N(C)C[C@H]2Oc3ccc(NS(=O)(=O)c4cn(C)cn4)cc3C(=O)N([C@H](C)CO)C[C@H]2C)cc1
-24 | -28 | -4.8 | CC(C)CNC(=O)c1ccc(-c2ccc(F)c(F)c2)c2ccoc12
14 | 15 | 5.1 | COC(=O)[C@H]1C[C@H](OC(=O)Nc2c(C)noc2C)[C@@]2(O)CN(S(=O)(=O)c3ccc(C)cc3)CC2[C@H]1C(=O)OC (stereo partly specified)
2 | 14 | 4.9 | CC(C)C[C@H]1COc2cccc(NCCO)c2S(=O)(=O)N1
0 | -11 | -3.3 | CC1(C(=O)NCc2cccc(Cl)c2)Cc2c(-c3ccc4c(c3)OCO4)ccnc2O1 (stereo unspecified)
-4 | -29 | -3.3 | COc1cccc(-c2cnc(C(O)c3c(C)ccc4ccccc34)[nH]2)c1 (stereo unspecified)
2 | 3 | -4.3 | COC(=O)C[C@@H]1CC[C@@H]2[C@H](COC[C@H](O)CN2S(=O)(=O)c2ccccc2OC)O1
9 | -4 | 0.6 | CC(C)NC(=O)N(C)C[C@H]1Oc2cc(C#CCN(C)C)ccc2S(=O)(=O)N([C@@H](C)CO)C[C@H]1C
1 | 3 | -0.6 | COc1ccc(NC(=O)N(C)C[C@H]2Oc3c(NC(=O)Nc4ccc(C(F)(F)F)cc4)cccc3C(=O)N([C@H](C)CO)C[C@H]2C)cc1
10 | 7 | -2.8 | Cc1ccc(C2=CC(=O)CC(C)(C)C2=O)cc1
10 | 9 | 1.2 | O=S1(=O)N[C@H](Cc2ccccc2)COc2cc(N3CCN(Cc4ccccc4F)CC3)ccc21
-2 | -2 | 1.5 | C[C@@H]1CN([C@H](C)CO)C(=O)Cc2cc(NC(=O)CCC(F)(F)F)ccc2O[C@@H]1CN(C)Cc1ccc(C(=O)Nc2ccccc2N)cc1
0 | -10 | 0.3 | Cc1noc(C)c1NC(=O)Nc1cccc2c1O[C@@H](CN(C)C(=O)Nc1ccc(C(F)(F)F)cc1)[C@H](C)CN([C@@H](C)CO)C2=O
6 | 6 | 0.4 | CNC[C@H]1OCCCC[C@@H](C)Oc2ccc(NC(=O)CCC(F)(F)F)cc2C(=O)N([C@H](C)CO)C[C@H]1C
24 | 26 | -1.4 | CC(C)(C)c1ccc2cccc(F)c2n1
1 | -15 | -3.8 | CN(C)CC(=O)Nc1ccc2c(c1)[C@H]1C[C@@H](CC(=O)N3CCc4ccccc4C3)O[C@H](CO)[C@H]1O2
-1 | -12 | 6.0 | COc1ccccc1OCC(=O)N/N=C(\C)c1ccc2ccccc2c1
2 | 7 | 0.6 | C[C@@H]1CN([C@@H](C)CO)C(=O)Cc2cc(NS(=O)(=O)c3ccc(Cl)cc3)ccc2O[C@H]1CN(C)S(=O)(=O)c1cn(C)cn1
0 | 2 | -3.3 | C[C@@H]1CN([C@@H](C)CO)C(=O)c2cc(NC(=O)Cc3cn(C)c4ccccc34)ccc2O[C@H]1CN(C)S(C)(=O)=O
1 | -4 | -2.5 | COc1ccccc1CNC(=O)C[C@@H]1CC[C@H](NC(C)=O)[C@H](CO)O1
2 | 9 | -3.1 | CS(=O)(=O)Nc1ccc2c(c1)[C@H]1C[C@@H](CC(=O)N3CCCCC3)O[C@@H](CO)[C@H]1O2
6 | 4 | -0.4 | O=C(Nc1nnc([C@H]2C[C@H](O)[C@@H](CO)O2)s1)c1cccc(Cl)c1
-2 | -7 | -0.6 | CCC(=O)Nc1ccc2c(c1)C(=O)N(C)[C@@H]1CC[C@H](CC(=O)NCc3ccccc3Cl)O[C@@H]1CO2
3 | 5 | -2.5 | COc1ccc(S(=O)(=O)N(C)C[C@H]2Oc3ccc(NC(=O)CCC(F)(F)F)cc3CC(=O)N([C@H](C)CO)C[C@H]2C)cc1
-3 | -8 | 1.3 | C[C@H](CO)N1C[C@H](C)[C@H](CN(C)C(=O)CCC(F)(F)F)OCCCC[C@H](C)Oc2ccc(NC(=O)NC3CCCCC3)cc2C1=O
-34 | -58 | 14 | CCNC(=O)N(C)[C@H]1C[C@H]2c3[nH]c4c(-c5ccccc5)cccc4c3CCN2C(=O)[C@H]1[C@H](C)O
4 | 3 | -0.8 | C[C@@H]1CCCCO[C@H](CN(C)CC2CC2)[C@H](C)CN([C@@H](C)CO)C(=O)c2cc(N(C)C)ccc2O1
4&0 | 5&5 | 2.5&-0.6 | NCC[C@@H]1CC[C@@H](NS(=O)(=O)c2ccc(Cl)cc2)[C@@H](CO)O1
-1 | 7 | 1.3 | CCCNC(=O)N1CC[C@H]2[C@@H]1c1cc(C#Cc3ccccc3)ccc1N(C)[C@H]2CO
-2 | -4 | -2.4 | COCC#Cc1ccc([C@@H]2[C@@H](CO)N3C(=O)CN(C(=O)Nc4cc(F)ccc4F)C[C@H]23)cc1

7 structures from above, sorted by number of heavy atoms, highest first.
rRNA inh HTS | rRNA inh HTS OD600 | rRNA inh HTS RFP | Molecule
-3 | -8 | 1.3 | C[C@H](CO)N1C[C@H](C)[C@H](CN(C)C(=O)CCC(F)(F)F)OCCCC[C@H](C)Oc2ccc(NC(=O)NC3CCCCC3)cc2C1=O
3 | 5 | -2.5 | COc1ccc(S(=O)(=O)N(C)C[C@H]2Oc3ccc(NC(=O)CCC(F)(F)F)cc3CC(=O)N([C@H](C)CO)C[C@H]2C)cc1
4 | 3 | -0.8 | C[C@@H]1CCCCO[C@H](CN(C)CC2CC2)[C@H](C)CN([C@@H](C)CO)C(=O)c2cc(N(C)C)ccc2O1
-2 | -4 | -2.4 | COCC#Cc1ccc([C@@H]2[C@@H](CO)N3C(=O)CN(C(=O)Nc4cc(F)ccc4F)C[C@H]23)cc1
-1 | 7 | 1.3 | CCCNC(=O)N1CC[C@H]2[C@@H]1c1cc(C#Cc3ccccc3)ccc1N(C)[C@H]2CO
6 | 4 | -0.4 | O=C(Nc1nnc([C@H]2C[C@H](O)[C@@H](CO)O2)s1)c1cccc(Cl)c1
4&0 | 5&5 | 2.5&-0.6 | NCC[C@@H]1CC[C@@H](NS(=O)(=O)c2ccc(Cl)cc2)[C@@H](CO)O1

Further entries.
rRNA inh HTS | rRNA inh HTS OD600 | rRNA inh HTS RFP | Molecule
-2 | 0 | 1.6 | COc1ccccc1NC(=O)N1C[C@H]2[C@@H](c3ccccc31)[C@@H](CO)N2C(=O)C1CCCC1
-6 | -7 | 2.2 | Cc1ccc(S(=O)(=O)N(C)C[C@@H]2Oc3ccc(NS(=O)(=O)c4ccccc4)cc3C(=O)N([C@H](C)CO)C[C@H]2C)cc1
3 | -2 | 0.8 | CCCC(=O)Nc1ccc2c(c1)OC[C@H](C)N(CC1CCCC1)C[C@@H](C)[C@@H](OC)CN(C)C2=O
-2 | -8 | 2.5 | Cc1ccc(S(=O)(=O)N(C)C[C@H]2Oc3ccc(NS(=O)(=O)c4c(C)noc4C)cc3C(=O)N([C@H](C)CO)C[C@H]2C)cc1
2 | 16 | -1.1 | COc1ccc2c3c(n(C)c2c1)[C@H](CO)N(C(=O)NC(C)C)CC31CCN(C(C)=O)CC1
-4 | -9 | -1.3 | C[C@H]1CN([C@@H](C)CO)S(=O)(=O)c2ccc(-c3ccncc3)cc2O[C@H]1CN(C)C(=O)Nc1ccc(F)cc1
0 | -7 | -2.7 | O=C(N[C@@H]1CC[C@@H](CCNS(=O)(=O)c2ccc(F)cc2)O[C@@H]1CO)c1ccccn1
12 | 17 | 2.4 | c1ccc2c(c1)nnn2-c1ccncc1
1 | 17 | -2.5 | O=C(c1cnccn1)N1CC(=O)N2[C@H](CO)[C@H](c3ccc(C4=CCCCC4)cc3)[C@@H]2C1
3 | 9 | 2.1 | COc1cccc(NC(=O)N[C@@H]2C=C[C@H](CC(=O)N3CCN(C)CC3)O[C@@H]2CO)c1

Not all compounds are listed; count on the stated rates, not on these rows.
